Source: PubChem BioAssay (Center for Chemical Genomics, University of Michigan)
CDC25B-CDK2 inh – human CDC25B-CDK2/CyclinA binding inhibition; P30305+P24941; HTRF CDC25B-CDK2/CyclinA binding, anti-His/anti-Flag; hits give high values; z-score (test concentration not listed); 94,000 tested, 0.72% active; AID 1259370;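 also: score is relative to mean and SD of negative controls; strong numbers were not always called active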
TAR Tat displ – HIV-1 TAR-Tat binding disruption; HIV-1 TAR RNA, Tat peptide displacement FRET; hits give high values; z-score (test concentration not listed); 100,000 tested, 0.6% active;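 also: score is relative to mean and SD of negative controls; some compounds called inactive have numbers as strong as hits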
* hit, by the source's call; . = not tested or not shown.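 The calls were made as follows: active = z-score from 3 up in half or more of its runs; inactive = the rest.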

Order of results – CDC25B-CDK2 inh | TAR Tat displ
COc1ccc(NC(=O)C2CC(=O)N(Cc3ccc(F)cc3)C2)cc1 (stereo not drawn)
 : -0.87 | .
Cc1nnc(N2CCC(C(=O)N3CCOCC3)CC2)c2nn(-c3ccc(Cl)cc3)c(C)c12
 : . | 0.51
CS(=O)(=O)N1CCN(CC(O)Cn2c3ccccc3c3ccccc32)CC1 (stereo not drawn)
 : -0.24 | 3.1
Cc1cc(C)c(C#N)c(OCc2ccccc2Cl)n1
 : . | 4.99
COc1cccc(C2CC(=O)N3CN(Cc4ccccc4)CSC3=C2C#N)c1OC (stereo not drawn)
 : 5.55* | -0.36
O=C(CCCO)NCc1ccc(F)cc1
 : -0.1 | .
Oc1cccc2ccc(CNc3ccc4c(c3)OCCO4)nc12
 : . | 3.01
Cc1oc2ncnc(N3CCCCC3)c2c1C(=O)NCCN(Cc1ccco1)C1CCCC1
 : . | 0.88
c1ccc(C2NCCc3c2sc2c3CCCC2)cc1 (stereo not drawn)
 : . | 2.65
Cc1ccc(Nc2nc(NC(C)(C)C)nc(Oc3ccc(=O)n(C)n3)n2)cc1C
 : -0.58 | -1.69
Cc1ccsc1CCNS(=O)(=O)c1ccc(-c2ccc(=O)[nH]n2)s1
 : . | 0.52
CSC(=NCCSCc1c(Cl)cccc1Cl)NC#N
 : -1.48 | .
CCCCN(CC)CCNC(=O)C1=Cc2sc3c(c2CS1)CCCC3
 : . | -2.32
Cc1cc(C)n2c(n1)nc1ccccc12
 : -2.13 | .
O=C(CCc1nc(-c2ccco2)no1)NC1CCCCC1
 : -1.36 | -1.02
Cc1nn(-c2ccc3nnc(C)n3n2)c2c1C(c1ccccc1OCc1ccccc1F)CC(=O)N2 (stereo not drawn)
 : . | 1.47
CCOC(=O)C(=CNc1ccccc1-c1nnc(-c2ccc(Cl)cc2)o1)C(=O)OCC
 : -0.87 | .
CCOC(=O)c1ccc(N2CCCCC2)c(N)c1
 : -0.16 | .
O=c1oc2ccccc2cc1S(=O)(=O)c1ccccc1
 : -0.55 | .
COc1ccccc1NS(=O)(=O)c1ccc(-c2cc(C)no2)s1
 : . | 0.97
c1ccc(-c2nnc3sc(-c4cccnc4)nn23)cc1
 : -0.36 | -0.22
Clc1cccc(-c2nnn3c2nc(N2CCOCC2)c2ccccc23)c1
 : -1.4 | 1.3
COc1ccc(NC(=O)NCc2c(-n3cccc3)sc3c2CCCC3)cc1
 : -2.02 | 0.68
O=C1c2cccc3c(N4CCOCC4)ccc(c23)C(=O)N1c1cccc(O)c1
 : -0.44 | -7.61
COc1cccc(C2Nc3cccc4cccc(c34)N2)c1
 : -1.2 | 21.3*
Cc1nc2sccn2c(=O)c1S(=O)(=O)Nc1ccccc1N1CCOCC1
 : . | 0.71
COC(=O)C1=C(N)OC2=C(C(=O)CC(C)(C)C2)C1c1cc(OC)ccc1OC (stereo not drawn)
 : -1.48 | .
CC(=O)Oc1ccc(C2C(C(=O)OC(C)C)=C(C)NC3=C2C(=O)CCC3)cc1 (stereo not drawn)
 : -2.78 | -0.19
CCCS(=O)(=O)N1CCCc2ccc(NS(=O)(=O)c3ccc(OCC)cc3)cc21
 : . | 1.63
O=S(=O)(NCc1ccco1)c1ccc(N2CCCCS2(=O)=O)cc1
 : . | 0.68
Fc1cccc(-c2nnn3c2nc(NCc2ccc4c(c2)OCO4)c2ccccc23)c1
 : -1.24 | 2.33
OCCNC(=S)NC1CC2C=CC1C2 (stereo not drawn)
 : 0.25 | .
Cc1cc(S(=O)(=O)/N=C/N(C)C)c(C)cc1Cl
 : -1.36 | .
Cc1ccc(S(=O)(=O)c2cc3cc(Cl)ccc3oc2=O)cc1C
 : 0.49 | .
Cc1ccc(S(=O)(=O)Nc2c(C)n(C)n(-c3ccccc3)c2=O)cc1
 : -0.8 | .
CCC1(C)Cc2ccccc2-c2[nH]c(=O)n(Cc3ccco3)c(=O)c21 (stereo not drawn)
 : -1.85 | 0.36
Cc1[nH]c2ccccc2c(=O)c1CN1CCCC1
 : -1.47 | -1.8
Cc1ccc(CN(C(=O)c2ccc(Br)cc2)C2CCS(=O)(=O)C2)o1 (stereo not drawn)
 : -2.14 | 0.8
CCOc1ccc(C2c3c(oc4ccc(C)cc4c3=O)C(=O)N2c2nccs2)cc1OC (stereo not drawn)
 : -1.12 | 1.17
CSc1cccc(NC(=O)c2cnc3sc(N4CCOCC4)nn3c2=O)c1
 : . | 2.53

5 entries out of the list, sorted by length of the SMILES, high to low:
Order of results – CDC25B-CDK2 inh | TAR Tat displ
Fc1cccc(-c2nnn3c2nc(NCc2ccc4c(c2)OCO4)c2ccccc23)c1
 : -1.24 | 2.33
Cc1ccc(S(=O)(=O)Nc2c(C)n(C)n(-c3ccccc3)c2=O)cc1
 : -0.8 | .
Cc1ccc(CN(C(=O)c2ccc(Br)cc2)C2CCS(=O)(=O)C2)o1 (stereo not drawn)
 : -2.14 | 0.8
Cc1nc2sccn2c(=O)c1S(=O)(=O)Nc1ccccc1N1CCOCC1
 : . | 0.71
COc1ccc(NC(=O)NCc2c(-n3cccc3)sc3c2CCCC3)cc1
 : -2.02 | 0.68

(listing goes on)
Order of results – CDC25B-CDK2 inh | TAR Tat displ
O=C(c1cc2c(=O)n3ccccc3nc2s1)N1CCC(Cc2ccccc2)CC1
 : -0.63 | .
CCOc1ccc2c(c1)NC(c1ccccc1)=NC(c1ccncc1)=N2
 : -2.06 | -1.08
C=CCN1C(C(=O)c2ccccc2)=C(NC(=O)CN2C(=O)CCC2=O)c2ccccc2S1(=O)=O
 : -2.48 | -0.34
CCOC(=O)C(C)Oc1ccc2c(C)cc(=O)oc2c1 (stereo not drawn)
 : -0.6 | .
CN(CCCNc1c(-c2ccc3c(c2)CCCC3)c(=O)c1=O)Cc1ccccc1
 : . | 0.72
O=c1c(NCCc2ccc(Cl)cc2)c(-c2ccc(Cl)cc2)c1=O
 : . | -1.58
COc1ccc(-n2ncc3c2ncn2nc(Cc4ccc(OC)c(OC)c4)nc32)cc1
 : -2.78 | 1.78
CC1Sc2ccc(S(=O)(=O)C(C)CC(=O)NC3CCCCC3C)cc2NC1=O (stereo not drawn)
 : . | 0.02
CCc1ccccc1Nc1nc(C)nc2c1CCC2
 : -1.06 | 1.06
Cc1ccc(-c2onc(C)c2C)cc1S(=O)(=O)Nc1cccnc1
 : . | 1.51
COc1cc(Cl)c(C2C(C#N)=C(N)Oc3cc(O)ccc32)cc1OC (stereo not drawn)
 : -0.53 | .
CCCN1CCN(S(=O)(=O)c2ccc3c(c2)CC(C)N3C(=O)C2CCC2)CC1 (stereo not drawn)
 : . | -0.04
Cc1ccc(C(O)c2ccccc2)s1 (stereo not drawn)
 : 0.4 | 0.57
O=C(CSc1cn(CC(=O)N2CCCC2)c2ccccc12)Nc1ccccc1
 : . | -0.65
CCN1CNC(=S)N(c2cccc(C)c2)C1
 : 0.44 | .
Cn1ncc2c(Nc3ccc(F)cc3)nc(NCCN3CCOCC3)nc21
 : . | 1.8
Cn1c2ccccc2c2c(C(=O)Nc3cccc(Cl)c3)cn(C3CCCCC3)c(=O)c21
 : 4.74 | 2.45
CCN(CC)C(=O)CSc1nn(C)c2nc3c(c(=O)n12)C(C)(CC)Cc1ccccc1-3 (stereo not drawn)
 : -0.79 | -0.57
Cc1cc(SC(=O)N/C=C/c2ccco2)c(C)cc1Cl
 : -1.44 | .
COc1ccc(-c2nc(=O)c3ccccc3o2)cc1OC
 : -1.6 | .
CCN(CC)CCCNC(=O)C1=C(C)C(=O)OC12CCN(C(C)=O)CC2
 : . | 0.93
COc1ccc(C2=Nc3ccc(F)cc3NC(c3ccccc3)=N2)cc1
 : -2.9 | -0.26
O=C(Oc1nnc(SCCS(=O)(=O)c2ccc(F)cc2)n1C1CC1)c1cccs1
 : -1.92 | .
CC(C)N(C(=O)Cn1cc(SCC(=O)N2CCOCC2)c2ccccc21)C(C)C
 : . | 0.65
COC(=O)c1ccsc1N1C(=O)c2ccccc2C1=O
 : -1.2 | .
CCc1nnc(SCC(=O)Nc2cc(C)ccc2C)c2cc3sccc3n12
 : . | 2.71
CC1Cc2nc(SCC(=O)N3CCc4ccccc43)n(-c3ccccc3)c(=O)c2S1 (stereo not drawn)
 : -1.64 | 1.67
Cc1nc(C)nc(N(CCS(=O)(=O)c2ccccc2)CCS(=O)(=O)c2ccccc2)n1
 : -2.04 | .
COc1ccc(C2CC(=O)C3=C(C2)NC(=O)CC3c2ccc(O)cc2)cc1 (stereo not drawn)
 : -1.33 | 2.44
CCc1noc2nc(C)nc(N3CCCC(C(=O)NCc4ccc(C)o4)C3)c12 (stereo not drawn)
 : . | 1.14
O=C(c1noc2c1COc1ccccc1-2)N1CCCCC1
 : 0.65 | 1.91
CCCNC(=O)Cn1c2c(c(=O)n3ncnc13)CCC2
 : -0.69 | -1.08
CCOc1ccc(-c2cc(-c3nc(-c4cccnc4)no3)[nH]n2)cc1
 : . | 1.11
Cc1nn2c3ccccc3n(CC(=O)c3ccc(Cl)cc3)c2nc1=O
 : -0.63 | 0.44
Cc1ccc2oc(=O)n(CC/C(N)=N/OC(=O)c3ccc(C(F)(F)F)nc3C)c2c1
 : -0.01 | .
CCOC(=O)c1c2n(c3ccc(O)cc13)CCC2
 : -1.68 | .
COc1ccc2ncc(S(=O)(=O)c3ccc(C)c(Cl)c3)c(OC)c2c1
 : 2.99 | 0.37
CCCN(CCC)CC(O)CN1C(=O)NC(C)(C)C1=O (stereo not drawn)
 : 0.18 | .
Cc1cc(NCc2ccc3c(c2)OCO3)n2nc(-c3ccco3)nc2n1
 : . | -1.27
CCOC(=O)C(C)Sc1nnc2ccc3ccccc3n12 (stereo not drawn)
 : -0.42 | 0.12
O=C(OCC1OC2C(Oc3nc(=O)ccn32)C1O)c1ccccc1 (stereo not drawn)
 : -2.13 | -1.21
Cc1ccc2onc(CNC(=O)NC3CCCCC3C)c2c1 (stereo not drawn)
 : . | 2.18
Cc1cccc(Nc2nc(C)nc3c2CCC3)c1
 : -1.11 | 2.37
C#C[C@]1(O)CC[C@H]2[C@@H]3CCc4cc(O)ccc4[C@H]3CC[C@@]21C
 : . | 0
CCOC(=O)c1c(C)[nH]c(C)c1S(=O)(=O)Nc1cc(OCC)ccc1OCC
 : . | 1.49
O=c1oc2ccccc2c2c1nnn2CCCN1CCOCC1
 : -1.21 | .
O=C(Nc1ccc2nn(-c3cccc4ccccc34)nc2c1)c1ccc([N+](=O)[O-])o1
 : -2.77 | .
CCc1nc2nc(C)c(NS(=O)(=O)c3ccc(C4CCCCC4)cc3)c(=O)n2[nH]1
 : 0.25 | 0.68
Cc1cc(-c2nn(C)c(=O)c3ccccc23)cc(C)c1O
 : 0.09 | .
CCOC(=O)C1CCCN(c2nc3c(S(=O)(=O)c4ccccc4)nnn3c3ccccc23)C1 (stereo not drawn)
 : . | 0.22
CC1CCCC(C)N1C(=O)C1=CC(c2ccc(F)cc2)=NS(=O)(=O)N1C (stereo not drawn)
 : -1.49 | 1.24
O=c1c2cccnc2nc(SCc2cc(=O)n3ccccc3n2)n1Cc1ccccc1
 : -2.02 | -0.95
Cc1cccc(Nc2ncnc3c2cnn3C)n1
 : . | 1.4
C=CCNc1nc2c(c(=O)[nH]c(=O)n2C)n1Cc1ccc(F)cc1
 : -0.91 | -0.11
CCOC(=O)CSc1nc2ccc(Cl)cc2n2cnnc12
 : -2.46 | -0.19
[N-]=C=N[n+]1ccc2ccccc2c1C(=O)c1ccc(Cl)cc1
 : -0.67 | .
O=C(Cc1cccs1)Nc1ccc(Br)cc1C(=O)O
 : 0.14 | 1.91
O=C(NCc1cccs1)c1noc2ncnc(N3CCOCC3)c12
 : . | -2.05
COc1cccc(-c2[nH]nc3nc(-c4cc(Br)ccc4F)cc(C(=O)O)c23)c1
 : -0.12 | -0.82
COCCNC(=O)CSc1nccn1Cc1ccco1
 : . | 2.23

Other entries follow:
Order of results – CDC25B-CDK2 inh | TAR Tat displ
CCSc1nn(C)c2cnn(CC)c(=O)c12
 : . | 1.32
CC(C)Cc1ccc(S(=O)(=O)N2CCN(c3ncccn3)CC2)cc1
 : -2.84 | 1.61
Cn1nnc2c(NC3CCCCC3)ncnc21
 : . | 1.04
CSc1cccc(NC(=O)CCS(=O)(=O)c2ccc3c(c2)NC(=O)CS3)c1
 : . | -1.44
COc1cc(S(=O)(=O)N2CC=C(c3ccc(F)cc3)CC2)ccc1-n1cnnn1
 : -1.62 | 2.08
CCN1CCN(CCNC(=O)c2cnc3c(C)cccn3c2=O)CC1
 : . | 0.73
O=C(COc1cccc(Br)c1)Nc1nc2ccccc2s1
 : -4.37 | -0.76
COc1ccc(OC)c(Sc2cc(-n3cccc3)c(Cl)cc2[N+](=O)[O-])c1
 : -0.09 | .
CC1CCCC(C)N1CCCN1C(=O)c2cc3sccc3n2CC1(C)C(=O)NC1CCCCC1 (stereo not drawn)
 : -2.78 | 1.39
CC(C)NC(=O)CN1CCN(C2CCCCC2)C(=O)C1=O
 : . | 1.37
CC1CCC(NC(=O)C2CCN(C(=O)c3sccc3-n3cccc3)CC2)CC1 (stereo not drawn)
 : -0.56 | 1.25
O=C(Nc1c(C(c2cccc(Cl)c2)N2CCOCC2)oc2ccccc12)c1ccco1 (stereo not drawn)
 : -0.26 | -0.78
CCOc1ccccc1NS(=O)(=O)c1ccc(-c2cc(C)[nH]n2)s1
 : . | 0.21
COc1ccc(NC(=O)c2cn3c4c(ccc(Cl)c4c2=O)OCC3)cc1
 : . | 0.5
COc1ccc(-n2nnnc2SCC(=O)c2ccc3ccccc3c2)cc1OC
 : -0.77 | .
CCCC12CN3CC(C)(CN(C1)C3c1cc3ccccc3[nH]1)C2=O (stereo not drawn)
 : -2.3 | 0.37
COc1ccc(N2C(=O)C3ON(c4ccccc4)C(c4cc(Br)ccc4O)C3C2=O)cc1 (stereo not drawn)
 : -0.51 | -0.62
COc1ccc(NC(=O)CCS(=O)(=O)c2cc3c4c(c2)CCN4C(=O)CC3)c(OC)c1
 : . | 1.52
C=CCN(C(=O)C1CCCN(S(=O)(=O)c2ccc3c(c2)oc(=O)n3C)C1)C1CCCCC1 (stereo not drawn)
 : -0.65 | .
